Mtb hypoxia rep: inhibitors of hypoxia-regulated fluorescent reporter in Mycobacterium tuberculosis. M. tuberculosis hypoxia-regulated fluorescent reporter, fluorescence. fluorescence inhibition, % (no concentration beside the values). 300,000 tested, 0.1% active. AID 1159583;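 active means 35 to 45% if threefold the growth effect, above 45% if 1.5-fold the growth effect; inactive means the rest, general growth blockers included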;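 further: wells of about 50 µL received 100 nL stock; 0% = vehicle wells and 100% = reference inhibitor wells; whole bacteria with a GFP reporter of the hypoxia response; strong numbers were not always called active; many hits fall short of the cut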
BJeLR lethal: BJeLR cell viability loss | BJeLR (HRASV12) viability, CellTiter-Glo ATP luminescence, 48 h; reference of the scale not given here | inhibition, % (test concentration not listed) | 300,000 tested, 0.17% active;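 active means replicate mean above 50%; inconclusive means above 50% but judged a plate artefact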;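 further: 50 nL library stock added to about 25 µL; numbers are from one replicate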
RN4220 kill: kills Staphylococcus aureus RN4220; inhibition, % (test concentration not listed); 330,000 tested, 0.33% active; AID 1259311; S. aureus RN4220 growth, OD600, 16 h;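 active means z-score of -3 or lower and OD600 up to 0.18 on both plates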;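 further: plate controls were untreated cells for no effect and reference antibiotic for full effect; stock transfer was 100 nL into about 80 µL; one replicate is shown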
Sa ugtP lethal: compounds lethal to S. aureus RN4220 ugtP deletion mutant; OD600 growth, 16 h; some inactives read as strong as hits; growth inhibition, % (no concentration beside the values); 330,000 tested, 0.54% active; AID 1259309;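 active means z-score under -3 and OD600 up to 0.15 on both plates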;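 further: plate controls were untreated wells for no effect and antibiotic for full effect; wells of about 80 µL received 100 nL stock; the first replicate is given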
PrP UTR inh: suppresses PrP 5' UTR mRNA reporter expression; inhibition, % (test concentration not listed); cell-based PrP 5' UTR mRNA reporter, plate reader; 340,000 tested, 0.35% active;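 active means every replicate at 50% or more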;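 further: 0 = median of the neutral control wells; tested in H4 reporter cells; numbers are from one replicate; inactives centre near -14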
Bead autofluor: counter-screen for toxin protease inhibitors: compound fluorescence; fluorescence intensity (concentration not given with the values); 360,000 tested, 3.1% active; compound autofluorescence counterscreen, microsphere flow cytometry; hits give high values;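 active means at least 3 SD above the mean of all compounds, about 16000 in these data; inconclusive means too few beads counted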;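 further: 100 nL of 1 mM stock went into each well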
Mtb hypoxia rep growth: recorded beside Mtb hypoxia rep, whose call it bears; growth inhibition, %; measured here: M. tuberculosis growth (absorbance);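 0% = vehicle and 100% = reference antibiotic; read after six days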
An asterisk follows results filed as active; ? = inconclusive; / = not tested or not shown.

The first four entries (preview)
The line under a structure holds: Mtb hypoxia rep | Mtb hypoxia rep growth | BJeLR lethal | RN4220 kill | Sa ugtP lethal | PrP UTR inh | Bead autofluor
[1] CSc1nc(N)c2c(n1)OC(N)=C(C#N)C2c1cccnc1 (configuration not stated)
    -3 | 0 | -3 | 6.4 | 12 | -20 | 2075
[2] C=CCN1C(=O)c2ccc(C(=O)OCC(=O)N(CC)C3CCS(=O)(=O)C3)cc2C1=O (configuration not stated)
    0 | -1 | / | -3.6 | -4 | -7 | 2833
[3] COc1ccc(C=Nc2cccc3ncccc23)cc1
    11 | 7 | 4 | 1.2 | 8 | -31 | 2146
[4] CC(C)OC(=O)C(=O)NNc1ccccc1
    -5 | 1 | 2 | -2.6 | 3 | -73 | 2678

All compounds of this part, from the start:
The line under a structure holds: Mtb hypoxia rep | Mtb hypoxia rep growth | BJeLR lethal | RN4220 kill | Sa ugtP lethal | PrP UTR inh | Bead autofluor
[1] CSc1nc(N)c2c(n1)OC(N)=C(C#N)C2c1cccnc1 (configuration not stated)
    -3 | 0 | -3 | 6.4 | 12 | -20 | 2075
[2] C=CCN1C(=O)c2ccc(C(=O)OCC(=O)N(CC)C3CCS(=O)(=O)C3)cc2C1=O (configuration not stated)
    0 | -1 | / | -3.6 | -4 | -7 | 2833
[3] COc1ccc(C=Nc2cccc3ncccc23)cc1
    11 | 7 | 4 | 1.2 | 8 | -31 | 2146
[4] CC(C)OC(=O)C(=O)NNc1ccccc1
    -5 | 1 | 2 | -2.6 | 3 | -73 | 2678
[5] O=C(Nc1ccccc1)c1ccc(Cn2cc(C(F)(F)F)ccc2=O)cc1
    7 | 10 | 2 | 4.0 | 0 | -24 | 6376
[6] Cc1ccc(NC2=NCC(=O)N2Cc2ccccc2)c(C)c1
    4 | 5 | 1 | -5.7 | -6 | -9 | 2753
[7] C[C@]12CCC(=O)C=C1C=CC1C2CC[C@]2(C)C(=O)CCC12 (some centres not stated)
    -1 | -1 | / | 1.6 | 7 | 17 | 2788
[8] COc1cc(C2N(Cc3ccccc3)CCN2Cc2ccccc2)ccc1OC(C)=O
    15 | 6 | 1 | 0.5 | 1 | -5 | 3841
[9] CC(C)(C)c1ccc(S(=O)(=O)NCC(=O)Nc2sc3c(c2C(N)=O)CCCC3)cc1
    / | / | 5 | 3.9 | -35 | -32 | 2726
[10] Cc1ccc2c(c1Br)C(=NN1C(=O)c3ccccc3C1=O)C(=O)N2
    5 | 9 | / | -16 | -11 | / | /
[11] O=C(COC(=O)CN1C(=O)c2ccccc2C1=O)Nc1ncc(Cl)cc1Cl
    / | / | 4 | 1.6 | 1 | -11 | 2671
[12] COc1ccc(Nc2ncnc3scc(-c4ccc(OC)cc4)c23)cc1
    2 | 8 | -3 | -1.7 | -15 | -17 | 2417
[13] COc1ccccc1N1CCN(C2CCCN(C(=O)CCc3cnccn3)C2)CC1 (configuration not stated)
    -2 | 9 | 0 | -2.6 | -2 | -6 | 5287
[14] COC(=O)NNC(=O)c1ccc(C)cc1
    9 | 12 | -6 | 4.9 | -2 | -27 | 10074
[15] O=C(NC(=S)Nc1ccc(S(=O)(=O)NC2CCCCC2)cc1)c1cccs1
    5 | 3 | -5 | 56 | 62 | -14 | 10011
[16] COc1ccc(-c2ocnc2C(=O)Nc2ccc(N3CCOCC3)cc2N2CCOCC2)cc1OC
    8 | -3 | 5 | 3.7 | -18 | -9 | 3928
[17] Cc1ccc(S(=O)(=O)N2CCCCC2)cc1NC(=O)COC(=O)c1cccn1C
    5 | -2 | / | 3.9 | 7 | -22 | 7899
[18] C/C(Cn1nnc2ccccc21)=N\OC(=O)c1ccccc1C
    / | / | 0 | / | / | -24 | 2205
[19] Cc1cc(C)cc(Oc2coc3cc(OC(=O)c4cccnc4)ccc3c2=O)c1
    16 | 14 | 19 | 5.3 | 23 | -19 | 9465
[20] O=C(/C=C/c1ccc(S(=O)(=O)N2CCOCC2)cc1)NC(CO)C(O)c1ccc([N+](=O)[O-])cc1 (configuration not stated)
    9 | 1 | / | 1.4 | 3 | -30 | 3066
[21] CS(=O)(=O)N(CC(=O)N1CCN(c2ccccc2F)CC1)c1cc(C(F)(F)F)ccc1Cl
    3 | 6 | 0 | 5.6 | -2 | -2 | 6325
[22] CC1(CC(=O)O)SC(=O)NC1=O (configuration not stated)
    0 | 1 | -6 | 6.8 | 11 | -9 | ?
[23] COc1ccc(N(CC(=O)Nc2ccccc2C)S(=O)(=O)c2c(C)[nH]c(=O)[nH]c2=O)cc1
    -5 | -8 | 9 | 1.9 | -2 | -11 | 3952
[24] COc1ccc(-n2cc(-c3ccccc3)nc2SC)cc1
    8 | 7 | -7 | -2.4 | 30 | -70 | 2562
[25] Cc1ccc2c(c1)-c1cc(C)nn1C(c1sccc1C)N2 (configuration not stated)
    5 | 2 | 3 | -5.8 | 4 | -25 | /
[26] CCCC(=O)N1CCN(C2=NS(=O)(=O)c3ccccc32)CC1
    5 | 10 | 0 | 1.5 | -2 | -21 | 23423*
[27] CC=CC(=O)Nc1cccc(C2=NOC3(C2)CC(C(N)=O)N(C(=O)C=CC)C3)c1 (configuration not stated)
    15 | 10 | / | 5.8 | -2 | / | /
[28] Cc1ccc(Cl)cc1NC(=O)c1cc(NC(=O)C2CCCCC2C(=O)O)ccc1N1CCOCC1 (configuration not stated)
    -10 | 6 | 7 | 1.7 | -6 | -6 | 5994
[29] COc1ccc(NS(=O)(=O)c2cccc(N/C(=N\S(=O)(=O)c3ccccc3)c3ccc(F)cc3)c2)cc1
    / | / | -6 | / | / | -17 | 10508
[30] COCCNC(=S)N/N=C(\C)c1ccc(C)c([N+](=O)[O-])c1
    / | / | -5 | / | / | -9 | 1907

Entries of single compounds, quoted from the list.
COc1ccc(N(CC(=O)Nc2ccccc2C)S(=O)(=O)c2c(C)[nH]c(=O)[nH]c2=O)cc1 across the screens: Mtb hypoxia rep = -5; Mtb hypoxia rep growth = -8; BJeLR lethal = 9; RN4220 kill = 1.9; Sa ugtP lethal = -2; PrP UTR inh = -11; Bead autofluor = 3952
COCCNC(=S)N/N=C(\C)c1ccc(C)c([N+](=O)[O-])c1 across the screens: Mtb hypoxia rep = /; Mtb hypoxia rep growth = /; BJeLR lethal = -5; RN4220 kill = /; Sa ugtP lethal = /; PrP UTR inh = -9; Bead autofluor = 1907
Cc1cc(C)cc(Oc2coc3cc(OC(=O)c4cccnc4)ccc3c2=O)c1 across the screens: Mtb hypoxia rep = 16; Mtb hypoxia rep growth = 14; BJeLR lethal = 19; RN4220 kill = 5.3; Sa ugtP lethal = 23; PrP UTR inh = -19; Bead autofluor = 9465

Continued.
The line under a structure holds: Mtb hypoxia rep | Mtb hypoxia rep growth | BJeLR lethal | RN4220 kill | Sa ugtP lethal | PrP UTR inh | Bead autofluor
[31] NC(=O)c1ccccc1NC(=O)c1ccoc1
    7 | -1 | -1 | 2.4 | 5 | -24 | 5577
[32] CC(Sc1nc2ncc(Cl)cc2[nH]1)C(=O)Nc1ccc(C(N)=O)cc1 (configuration not stated)
    4 | 0 | 0 | 1.7 | 1 | -12 | ?
[33] O=C(Nc1ccccc1N1CCOCC1)c1ccc2c(c1)OCCO2
    9 | -1 | 1 | 2.9 | 10 | -13 | 5821
[34] Cc1ccc(-n2c(SCC(=O)NCc3ccco3)nc3sc(C)c(C)c3c2=O)cc1
    / | / | 2 | 3.2 | 16 | 5 | 3339
[35] O=C(O)c1ccc(N=NN2CCOCC2)cc1
    15 | -4 | 10 | 3.1 | 6 | -92 | 2533
[36] CC1CN(CCCCOc2ccc3ccccc3c2)CC(C)O1 (configuration not stated)
    -8 | -2 | -11 | 2.6 | 3 | -4 | 2396
[37] S=c1[nH]nc(-c2cc3ccccc3o2)n1Cc1ccccc1
    -1 | 5 | 2 | 11 | -17 | -3 | 2406
[38] O=C(c1ccc(CSc2ccccc2)cc1)N1CCCCCC1
    3 | 15 | -10 | 11 | 1 | -38 | 2480
[39] COc1ccc(C(CNC(=O)CNC(=O)c2ccccc2)N2CCCC2)cc1 (configuration not stated)
    9 | 5 | / | 0.3 | 6 | -6 | 3574
[40] COc1ccccc1/C=C1\SC(=O)N(CCC(=O)NCCCn2ccnc2)C1=O
    5 | 2 | 83* | 1.5 | 7 | -43 | 5722
[41] N/C(=C\C(=O)c1cc(Cl)ccc1O)C(Cl)(Cl)Cl
    14 | 3 | 35 | 10.0 | 9 | 17 | 4038
[42] CCOC(=O)N1CCN(CC(O)COc2ccc(C(C)C)c(C)c2)CC1 (configuration not stated)
    16 | 12 | -5 | -0.3 | 3 | -8 | 3367
[43] CCN(CCCCN1C(=O)c2ccccc2C1=O)c1ccc2c(c1)C(=O)N(C)C2=O
    -5 | 16 | 4 | 5.5 | -13 | -4 | 9045
[44] Nc1nnc(SCCOc2ccccc2)s1
    2 | 5 | -9 | -0.6 | 15 | -16 | 10223
[45] CCOC(=O)C1CCCN(C(=O)c2sc3nc4n(c(=O)c3c2C)CCC4)C1 (configuration not stated)
    10 | 8 | / | 3.4 | 5 | -19 | /
[46] N#C/C(=N\O)c1nc2ccccc2[nH]1
    / | / | 4 | / | / | -2 | 2076
[47] CCc1c(C)c(C#N)c2nc3ccccc3n2c1NCc1ccccn1
    17 | 2 | -7 | 2.7 | 3 | -8 | 4383
[48] COc1ccc(NC(=O)c2ccc(CN(c3cc(Cl)ccc3C)S(=O)(=O)c3ccccc3)cc2)cc1OC
    3 | 1 | -2 | 5.1 | -10 | -23 | 20845*
[49] O=C(c1ccc(F)cc1)c1c[nH]c(C(=O)NCc2cccnc2)c1
    -5 | 12 | -2 | -0.3 | -2 | -12 | 6097
[50] COc1ccc(/C=C(/C(=O)Nc2ccccc2C(=O)NC(C)C)c2ccccc2)cc1
    7 | 16 | 15 | 1.8 | -8 | -26 | 17014*
[51] O=c1cc(-c2ccc(C(F)(F)F)cc2)oc2ccccc12
    17 | 10 | / | 4.0 | 3 | -31 | 3978
[52] CC1CCc2c(sc3ncnc(SC(C)C(=O)NCC4CCCO4)c23)C1 (configuration not stated)
    8 | 5 | -9 | -1.2 | -2 | -10 | 6092
[53] CCN(Cc1ccccc1)C(=O)CCCOc1ccccc1
    11 | 16 | 14 | 4.7 | 15 | -30 | 11157
[54] Cc1ccc(C2(c3noc(CN4C[C@@H](C)O[C@@H](C)C4)n3)CCCC2)cc1
    12 | 15 | -5 | 16 | 6 | -36 | 4353
[55] CC(=O)C1=C(C)NC2=C(C(=O)c3ccccc32)C1c1ccccc1 (configuration not stated)
    10 | -5 | 1 | 5.1 | 6 | -12 | 3178
[56] CCCCCSc1nnc2c(n1)OC(c1cccn1C)N(C(C)=O)c1ccccc1-2 (configuration not stated)
    / | / | 2 | / | / | -26 | 3348
[57] CN(C)c1ccc(C(=S)N2CCCCC2)cc1
    4 | 5 | -5 | 6.6 | 1 | -9 | 2036

Compound activity: PubChem, several laboratories
